fixLJ activator: activators of Burkholderia fixLJ two-component system, primary screen, B. multivorans, GFP reporter; B. multivorans fixK-promoter GFP reporter, 18 h; stronger effect = higher value; z-score (test concentration not listed); 0.3% of 29,000 active; AID 1918990, 2023;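 active = replicate mean overnight rise in green fluorescent reporter signal, 3 or more SD over negative controls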;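 also: score is relative to vehicle wells of the plate; 300 nL library stock went into each well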
* hit, by the source's call; & = joins results of further samples.

SMILES	fixLJ activator
CCCc1nc(C)c(CNS(=O)(=O)c2cn(C)cn2)s1	0.82
O=C(CCn1c(=O)c2sccc2n(Cc2ccccc2F)c1=O)NCc1ccc2c(c1)OCO2	-0.5
Nc1nccc(N2CC3CN(C4CCOCC4)C[C@@]3(C(=O)O)C2)n1 (some centres not stated)	-0.46
Cc1[nH]n(-c2ccccc2)c(=O)c1C(c1cc(Cl)ccc1O)c1c(C)[nH]n(-c2ccccc2)c1=O	-4.3
O=c1nc2sc3ccccc3n2c(=O)n1-c1ccc(Cl)c(Cl)c1	-3.6
CCCOc1ccc(CNC(=O)c2ccc3c(c2)N(Cc2ccccc2)CCS3)cc1	-1.8
COc1cccc(-n2c(=O)c3sc4ccccc4c3n(Cc3c(F)cccc3Cl)c2=O)c1	0.63
CCc1nccn1CCCNS(=O)(=O)c1ccc2c(c1)NC(=O)CCS2	-3.1
Cc1oc2ccc(O)c(CN3CCOCC3)c2c1C(=O)Nc1cccc(Cl)c1C	-0.41
COc1ccc(NC(=O)c2sc3nc4c(cc3c2N)CCCCCC4)cc1Cl	-1.1
CCOc1ccc(CN2CCn3nc(CNC(=O)C4CCC4)cc3C2)cc1	-0.99
COc1cncc(C(NC(=O)CCc2nc3ccc(F)cc3[nH]2)C2CC(O)C2)c1 (configuration not stated)	-0.8
CN1CC[C@]2(C(=O)NCCOCCO)CCCN(C(=O)c3cccn3C)[C@@H]2C1	-0.62
Cc1ccc(NC(=O)C(Cc2ccccc2)n2cccc2)cc1 (configuration not stated)	-1.1
O=C(NCc1ncc[nH]1)c1ccc2c(c1)[nH]c(=O)n2C1CCC(O)CC1 (configuration not stated)	-0.93
CCc1ccc(-c2nc3cc(NC(=O)c4ccc(F)cc4)ccc3o2)cc1	-0.79
CNC(=O)c1cccnc1NCC(c1ccccc1F)N1CCCC1 (configuration not stated)	-1.8
Cc1cccc(NC(=O)C(NS(=O)(=O)c2ccc3c(c2)oc(=O)n3C)C(C)C)c1 (configuration not stated)	-0.31
CCOc1ccc(Nc2nn(-c3ccc(OC(F)(F)F)cc3)nc2C(C)=O)cc1	0.92
Cc1ccc(-n2nc(C(=O)NCc3ccc(F)cc3Cl)c3c4ccccc4n(C)c3c2=O)cc1	0.61
CCc1nnc(CNC(=O)c2[nH]c3ccccc3c2CC)s1	-1.2
CCOC(=O)c1c(-c2ccccc2)oc2ccc(NS(=O)(=O)c3cc(C)c(C)cc3C)cc12	-0.67
Cc1ccc(OCCCCn2nnc3sc4c(c3c2=O)CCCC4)cc1	-0.25
CC(C)CC1NC(=O)C(CCCN)NC(=O)C(C(C)C)NC(=O)C2CCCN2C(=O)C(Cc2ccccc2)NC(=O)C(CC(C)C)NC(=O)C(CCCN)NC(=O)C(C(C)C)NC(=O)C2CCCN2C(=O)C(Cc2ccccc2)NC1=O (configuration not stated)	-3.5
Cc1cc(CC(=O)N2CCC3(CC2)OCCc2ccsc23)on1	-0.7
CCn1cncc1CN1CC2c3ccccc3OC[C@]2(C(=O)O)C1 (some centres not stated)	-0.42
Cc1ccc(NC(=O)c2sc3nc4c(cc3c2N)CN(Cc2ccccc2)CC4)cc1	2
Cc1ccc(-c2nc3ccc(Cl)cn3c2Nc2ccc3c(c2)OCCO3)s1	-0.98
Cc1cc(Cl)ccc1NC(=O)N1CCN(C)C2CS(=O)(=O)CC21 (configuration not stated)	-0.15
COc1cc(OC)c(NC(=O)c2cc3c(=O)oc4ccc(C)cc4c3s2)cc1Cl	0.03

Not a retest: an excerpt of the list.
SMILES	fixLJ activator
CCc1nnc(CNC(=O)c2[nH]c3ccccc3c2CC)s1	-1.2
CCOC(=O)c1c(-c2ccccc2)oc2ccc(NS(=O)(=O)c3cc(C)c(C)cc3C)cc12	-0.67
Cc1ccc(OCCCCn2nnc3sc4c(c3c2=O)CCCC4)cc1	-0.25

Continued:
SMILES	fixLJ activator
O=C(COc1cc(Cl)ccc1Cl)Nc1ccc(Cl)cc1C(=O)c1ccccc1	1.3
COC(=O)c1cc2oc3ccccc3c2n1CC(=O)Nc1ccc(N(C)C)cc1	-0.63
Cc1ccc(S(=O)(=O)c2nnn3c2nc(N2CCC(C)CC2)c2cc(Cl)ccc23)cc1C	-1
OCc1cccc(CNc2nccc(N3CCC(O)C3)n2)c1 (configuration not stated)	-0.43
CCCOc1c(Cl)cc(C(=O)N(Cc2cccc(OC)c2)C2CCS(=O)(=O)C2)cc1Cl (configuration not stated)	0.62
O=C(CCNS(=O)(=O)c1cccc2nonc12)Nc1ccc(F)cc1	-0.39
CCOC(=O)c1cc(-c2ccc(C)cc2)n(CC(=O)Nc2ccc(OC)cc2OC)c1C	0.01
CCOC(=O)N1CCN(C(=O)c2ccc3c(c2)N(Cc2ccccc2F)C(=O)c2ccccc2S3(=O)=O)CC1	-1.8
CC(NC(=O)C1CCN(S(=O)(=O)c2ccc(F)cc2)CC1)c1ccccc1 (configuration not stated)	-0.59
COc1ccccc1-c1nnc(C2CCN(C(=O)c3cccc(C)c3)CC2)o1	-1.1
COc1cc(C(=O)Nc2cc(C)c(O)c(-c3nc4ccccc4s3)c2)cc(OC)c1OC	-0.34
Cc1cccc(NC(=O)CSc2nc(-c3cccs3)cc(C(F)(F)F)c2C#N)c1C	-3.7
COc1ccc(C2=C(N3CCN(c4cccc(C)c4)C(C)C3)c3ccccc3C2=O)cc1 (configuration not stated)	-1.2
COc1cc2c(=O)n(CCC(=O)NCC3CCCO3)c(=O)n(CC(=O)Nc3c(C)cccc3C)c2cc1OC (configuration not stated)	-0.35
Cc1ccc(CCC(=O)N2CC(C(=O)O)CC(C(=O)N3CCCC3)C2)cc1C (configuration not stated)	-1.9
COc1ccc2oc(=O)c(C(=O)NCCc3c(C)[nH]c4ccc(F)cc34)cc2c1	-1.4
O=C1CC(c2nnc(Cc3c(F)cccc3Cl)o2)CN1c1ccccc1 (configuration not stated)	0.15
COc1cccc(CNC(=O)c2cc3c(=O)oc4ccc(C)cc4c3s2)c1	-1.9
CNS(=O)(=O)c1ccc(NC(=O)c2cnn3c(C(F)F)cc(-c4ccccc4)nc23)cc1	-1.3
O=C(NCCc1ccccc1)c1ccc2c(c1)N(Cc1ccccc1)C(=O)c1ccccc1S2(=O)=O	0.81
Cc1cc(C)c2c(CC(=O)N3CCN(c4cccc(Cl)c4)CC3)coc2c1	1
CS(=O)(=O)NCCNC(=O)NC1CCCN(C(=O)c2ccccc2)C1 (configuration not stated)	-1.6
Cc1ccc(NC(=O)Cn2cc3c(n2)CCCC3)c(Cl)c1	-0.53
CCC(C)NC(=O)CCSc1nc(-c2ccc3c(c2)OCO3)cc(C(F)(F)F)n1 (configuration not stated)	0.83
COc1ccc(C(C)NC(=O)c2cc(C(C)(C)C)[nH]c(=O)n2)cc1F (configuration not stated)	0.8
CCCCN(CCCC)CCNC(=O)c1cn(C)c2ccc(S(=O)(=O)N3CCCC3)cc2c1=O	0.38
COc1ccc(/C=C/C(=O)Nc2sc(C)c(C)c2C(=O)O)cc1	1
COc1cc(OC)c(NC(=O)Nc2c(C)n(C)n(-c3ccccc3)c2=O)cc1Cl	-1.4
COC(=O)c1coc(CN2CCCCC2CCc2ccc(O)cc2)n1 (configuration not stated)	0.42
COc1cccc(OCc2cc(=O)n3c(-c4ccccc4)csc3n2)c1	-0.88
COc1ccc2[nH]c(=O)c(CN(C(=O)c3cccc(Cl)c3)c3ccccc3OC)cc2c1	-0.59
CCOc1ccc(C(=O)Nc2ccc3oc(-c4ccc(Br)cc4)nc3c2)cc1	0.58
CCOC(=O)C1=C(C)NC(C)=C(C(=O)OCC)C1c1ccccc1/C=C/C(=O)OC(C)(C)C	-0.53
CC(=O)c1cccc(-n2c(=O)c3c4c(sc3n(CC(=O)Nc3ccccc3F)c2=O)CN(C(C)=O)CC4)c1	-0.44
CNc1ncc(C(=O)N2CC(O)C(Cc3ccnc4ccccc34)C2)cn1 (configuration not stated)	-1.5
CC(C)(C)c1ncc2c(n1)CN(CC(=O)NC1CCCCCC1)C2	-0.3
Cc1nc2sc(C(=O)N(C)Cc3ccccc3)c(NC(=O)c3ccccc3)c2c(C)c1Cl	-2.7
COc1ccccc1OC(C)(C)C(=O)NC1COCC1Cc1ccncc1 (configuration not stated)	-1.1
CCOC(=O)COc1ccc([N+](=O)[O-])cc1-c1ccnc2cc(-c3ccc(Cl)cc3)nn12	0.56
Cn1cc[nH]c1=S	-1.7&-1.8
CCCCNc1sc(S(=O)(=O)CC)nc1S(=O)(=O)c1ccc(C)cc1	-1.5
CN(C(=O)Cn1c(=O)n(Cc2ccc(C(=O)NCc3ccc4c(c3)OCO4)cc2)c(=O)c2ccccc21)c1ccccc1	0.28
FC(F)(F)c1ccnc(N2CCCOC(Cn3cccn3)C2)n1 (configuration not stated)	-0.46
CCNC(=O)CC1C(=O)N(c2ccccc2)C(=O)N1Cc1ccc(F)cc1 (configuration not stated)	-0.2
COc1cccc(CCNC(=O)Cn2c(-c3cccs3)cc3ccccc32)c1	-0.12
COc1ccc(Cl)cc1NC(=O)CCc1c(C)nc2c(c1C)c(=O)n(C)c(=O)n2C	-1.2
COc1cc2nc(SCc3ccc(C)cc3)n3nc(CCn4nc(C)cc4C)nc3c2cc1OC	-0.3
O=C(NCCc1cccnc1)c1ccc2nc(-c3ccc(F)cc3)cn2c1	1.6
Cc1cc(F)ccc1S(=O)(=O)Nc1ccc2oc3c(c2c1)CC(C)CC3 (configuration not stated)	-0.52
CCC1=Nc2cc(C(=O)NCCc3ccccc3)ccc2Sc2ccc(Cl)cc21	-1.4

Next part
SMILES	fixLJ activator
COc1ccc(OC)c(NC(=O)[C@H](CSCc2ccccc2)N2Cc3ccccc3C2=O)c1	2.5
CC(C)n1cc(C(=O)N2CCCN(C(=O)c3ccc(C#N)cc3)CC2)cn1	0.76
CCc1ccc(NC(=O)CCc2c(C)nc3nc(-c4cc(OC)cc(OC)c4)nn3c2C)cc1	0.29
CCc1ccccc1-n1c2c(cc(-c3nc(-c4ccc(Cl)cc4)cs3)c1=O)C(=O)CC(C)(C)C2	-0.36
Cc1cccc(OCC(=O)Nc2ccc3c(c2)nc(CN2CCCCC2)n3C)c1	-0.88
CCOc1ccc(OCC)c(NC(=O)C2CCCN(S(=O)(=O)c3ccc4c(c3)oc(=O)n4C)C2)c1 (configuration not stated)	-0.52
Cc1nnc(CCNC(=O)c2cnc(-c3cccs3)nc2)s1	-1
CCOc1ccccc1-c1noc(CCCC(=O)Nc2cccc(C(F)(F)F)c2)n1	-1.4
O=C1CN(CCCNC(=O)c2ccc(-c3cccc4cc[nH]c34)cc2)CCN1	-0.18
COC(=O)c1c(Oc2ccc(C(C)=O)cc2)nnc(-c2ccccc2)c1-c1ccccc1	-1.5
CC(C)c1noc(CN(C)C(=O)C2COc3ccccc3C2)n1 (configuration not stated)	-1.3
Cn1ccc2cc(-c3cccc(C(=O)NCCN4CCCOC4=O)c3)ccc21	-3.4
Cc1oc(C)c2c(=O)cc(-c3ccc4c(c3)OCO4)cc(OC(=O)c3cccc(Cl)c3)c12	0.64
CCc1ccc(-n2c(=O)c3ccccc3n(CC(=O)NCCc3ccc(OC)c(OC)c3)c2=O)cc1	-0.83
O=C(Cn1ncc2c3ccccc3n(Cc3cccc(Cl)c3)c2c1=O)Nc1ccc(F)cc1F	-0.83
COc1ccc(CN2CCC3(CCC(=O)N(CCO)C3)CC2)cc1	-1.3
CCC(CC)n1c(=O)n(Cc2cc(C(C)C)no2)c2cc(C(=O)O)cnc21	-0.99
CN(CCC1(O)CCCC1)C(=O)C1CCC(=O)N(Cc2ccccc2F)C1 (configuration not stated)	0.9
CCc1ccc(C2c3c(-c4ccccc4)n[nH]c3C(=O)N2c2ccc(C(=O)O)cc2)cc1 (configuration not stated)	-1
CCN(CC)CCOc1ccc(/C(=C(\Cl)c2ccccc2)c2ccccc2)cc1	-1.1
COc1ccc(C(=O)Nc2ccc(-c3nc4ccccc4s3)c(Cl)c2)cc1Cl	-2.5
COc1cccc(CNC(=O)CCc2c(C)nc3c(c(C)nn3-c3ccc(C)c(C)c3)c2C)c1	-0.47
COc1cccc(CCC(=O)NC2CCOC3(CCOCC3)C2)c1 (configuration not stated)	0.45
O=C(CSc1nc2c(oc3ccccc32)c(=O)n1-c1ccccc1)Nc1ccc(F)c(Cl)c1	0.24
COc1ccc(S(=O)(=O)N2CCC(C(=O)Nc3ccc(Oc4ccccc4)cc3)CC2)cc1OC	-1.3
CN(CCCn1cccn1)C(=O)C1OCC(=O)NC1c1ccccc1Cl (configuration not stated)	-0.57
CCOc1ccc(/C=C(\C#N)c2nc3ccccc3c(=O)[nH]2)cc1OC	0.47
O=C(CCn1cncn1)N1CCCC(c2nccn2Cc2cscn2)C1 (configuration not stated)	-1.9
Cc1ccc(C)n1-c1nnc(N2CCCC(C(=O)NCc3cccc(F)c3)C2)s1 (configuration not stated)	-0.15

Grouped by structure, the entries above containing an NH in an aromatic ring (eleven)
SMILES	fixLJ activator
Cc1[nH]n(-c2ccccc2)c(=O)c1C(c1cc(Cl)ccc1O)c1c(C)[nH]n(-c2ccccc2)c1=O	-4.3
COc1cncc(C(NC(=O)CCc2nc3ccc(F)cc3[nH]2)C2CC(O)C2)c1 (configuration not stated)	-0.8
O=C(NCc1ncc[nH]1)c1ccc2c(c1)[nH]c(=O)n2C1CCC(O)CC1 (configuration not stated)	-0.93
CCc1nnc(CNC(=O)c2[nH]c3ccccc3c2CC)s1	-1.2
COc1ccc2oc(=O)c(C(=O)NCCc3c(C)[nH]c4ccc(F)cc34)cc2c1	-1.4
COc1ccc(C(C)NC(=O)c2cc(C(C)(C)C)[nH]c(=O)n2)cc1F (configuration not stated)	0.8
COc1ccc2[nH]c(=O)c(CN(C(=O)c3cccc(Cl)c3)c3ccccc3OC)cc2c1	-0.59
Cn1cc[nH]c1=S	-1.7&-1.8
O=C1CN(CCCNC(=O)c2ccc(-c3cccc4cc[nH]c34)cc2)CCN1	-0.18
CCc1ccc(C2c3c(-c4ccccc4)n[nH]c3C(=O)N2c2ccc(C(=O)O)cc2)cc1 (configuration not stated)	-1
CCOc1ccc(/C=C(\C#N)c2nc3ccccc3c(=O)[nH]2)cc1OC	0.47

Source: PubChem BioAssay (ICCB-Longwood Screening Facility, Harvard Medical School)

The list is partial; the hit share may differ from the screen's.
